Screens (PubChem)
PABP polyA inh: PABP-poly(A) binding inhibition | actives 1% (n = 290,000) | inhibition, % at 35 µM | PABP-poly(A) RNA binding, fluorescence polarization | P11940 | AID 2014;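 active = 50% or more with normal probe brightness, or confirmed in later tests; inconclusive = above 50% with abnormal brightness, or retests that disagree; inactive = below 50% or failed in later tests; about a fifth of its hits are not listed in these tables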;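 also: calls also rest on retests at 20 µM and on dose response follow-up; controls were probe without protein and protein plus probe with vehicle; some compounds called inactive have numbers as strong as hits; many hits fall short of the cut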
Target sequence (P11940 whole entry, looked up): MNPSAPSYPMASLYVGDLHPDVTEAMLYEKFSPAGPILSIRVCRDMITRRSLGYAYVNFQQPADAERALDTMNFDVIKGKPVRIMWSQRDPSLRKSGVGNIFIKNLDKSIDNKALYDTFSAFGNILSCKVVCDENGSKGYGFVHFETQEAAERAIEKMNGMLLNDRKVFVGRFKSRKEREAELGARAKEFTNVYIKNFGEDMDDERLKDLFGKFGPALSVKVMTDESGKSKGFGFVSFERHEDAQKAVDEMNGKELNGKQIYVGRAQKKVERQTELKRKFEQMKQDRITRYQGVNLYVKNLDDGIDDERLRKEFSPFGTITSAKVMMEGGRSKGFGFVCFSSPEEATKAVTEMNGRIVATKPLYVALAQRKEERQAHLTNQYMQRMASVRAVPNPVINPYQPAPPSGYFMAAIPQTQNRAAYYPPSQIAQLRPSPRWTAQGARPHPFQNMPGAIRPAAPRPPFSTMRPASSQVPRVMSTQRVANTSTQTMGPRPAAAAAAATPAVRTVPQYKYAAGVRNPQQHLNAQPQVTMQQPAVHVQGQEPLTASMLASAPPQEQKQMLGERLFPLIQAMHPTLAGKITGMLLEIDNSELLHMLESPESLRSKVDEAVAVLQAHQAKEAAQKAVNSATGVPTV
UUG fidelity: yeast start codon fidelity modulation. S. cerevisiae UUG-firefly luciferase reporter, luminescence/redox ratio. activity score, % at 18.7 µM. actives 0.13% (n = 350,000);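 active = replicate mean at a twofold rise or more, about +100% in these data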;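 also: firefly luciferase made from a UUG start codon reports start codon fidelity; reporter light over untreated wells divided by growth signal over untreated wells; some hits fall short of that in this replicate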
Env fusion inh: inhibitors of HIV Env-mediated cell fusion. actives 1.1% (n = 360,000). AID 651610. inhibition, % at 12.3 µM. HeLa-JRFL Env/CEM21 cell fusion, luciferase;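 active = mean replicate inhibition score of at least 50 and every replicate individually at or above 50; inconclusive = only one of the two criteria met; inactive = mean below 50 and not all replicates reaching 50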;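 also: 0% = plate neutral controls and 100% = maraviroc near 300 nM; one replicate is shown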
MT1-MMP act inh: MT1-MMP (human) activation inhibition; P50281; HT1080 RFP-PRO-GFP cells, GFP/RFP ratio fluorescence, overnight; percent of plate control window, DMSO zero; GFP/RFP ratio change, % at 20 µM; actives 0.061% (n = 360,000); AID 651647;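 active = GFP/RFP ratio change of at least 30% with cell ATP level not reduced by more than half and red fluorescence within 50% of control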; also: strong numbers were not always called active
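system = RFP-PRO-GFP reporter HT1080 cells | dosing = 20 µM single dose, 1% DMSO | timing = overnight cell settling, then overnight compound exposure, 37 °C, 5% CO2 | read-out basis = GFP/RFP fluorescence ratio | controls = DMSO and RFP-L50D-GFP cell wells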
CSC inhib: cancer stem cell inhibition; AID 2717; actives 1.1% (n = 300,000); inhibition, % at 7.5 µM; cancer stem cell-like cells viability, luminescence;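 active = mean at 75% or more and at least half the replicates too; inconclusive = mean and replicates disagree; tested in HMLE shEcad cells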;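 also: 0% = median of negative and 100% = median of positive control wells; the first replicate is given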
Rce1 inhib: yeast Ras-converting enzyme inhibition | Q03530 | yeast membranes, quenched prenylated peptide cleavage fluorescence | calls only | actives 0.27% (n = 290,000);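 active = fall in fluorescence gain of 50% or more versus controls, with final raw signal at or below 3038400; inconclusive = same 50% fall but final raw signal above 3038400; inactive = fall in fluorescence gain under 50%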;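 also: plate controls were neutral control wells for no effect and wells lacking membranes for full effect; tested at 10 µM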
Target sequence (Q03530 whole entry, looked up): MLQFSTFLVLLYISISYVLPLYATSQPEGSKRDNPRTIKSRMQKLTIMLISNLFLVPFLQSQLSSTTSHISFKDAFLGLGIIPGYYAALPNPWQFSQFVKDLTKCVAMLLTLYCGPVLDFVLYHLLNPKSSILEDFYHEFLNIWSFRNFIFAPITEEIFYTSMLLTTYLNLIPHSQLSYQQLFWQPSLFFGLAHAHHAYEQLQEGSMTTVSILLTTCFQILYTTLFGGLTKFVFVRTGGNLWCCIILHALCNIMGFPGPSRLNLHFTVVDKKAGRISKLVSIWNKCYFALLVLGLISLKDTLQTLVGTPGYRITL
eIF4H inh: inhibitors of RNA binding by human eIF4H; inhibition, % at 35 µM; Q15056; eIF4H fluorescence polarization binding assay; actives 0.94% (n = 290,000); AID 2012;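 active = 50% or more with normal probe brightness, or confirmed in later tests; inconclusive = above 50% with abnormal brightness, or retests that disagree; inactive = below 50% or failed in later tests; about a fifth of its hits are not listed in these tables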;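 also: calls also rest on retests at 20 µM and on dose response follow-up; 0% = protein and probe with vehicle and 100% = probe without protein; strong numbers were not always called active; many hits fall short of the cut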
eIF4H inh retest: second read-out of eIF4H inh, no call of its own (marks repeat the call); inhibition, %; compound at 20 µM; confirmation average;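 mean of two retest wells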
PABP polyA inh retest: recorded beside PABP polyA inh, whose call it bears; inhibition, %; compound at 20 µM; confirmation repeats;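 mean of two retest wells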
MT1-MMP act inh RFP: recorded beside MT1-MMP act inh, whose call it bears; RFP signal change, %; measured here: RFP expression control read;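 0 = vehicle wells; hits needed this value within 50% of zero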
* hit, by the source's call; i = inactive; ? = inconclusive; · = no result given.

SMILES	PABP polyA inh	UUG fidelity	Env fusion inh	MT1-MMP act inh	MT1-MMP act inh RFP	CSC inhib	Rce1 inhib	eIF4H inh	others
CCNC(=O)c1ccc(NS(=O)(=O)c2ccc3[nH]c(=O)[nH]c3c2)cc1	-5	-5	-23	-3	0	-7	i	-10
Cc1cccc(N2CCN(C(=O)c3cc(COc4ccc(F)c(F)c4)on3)CC2)n1	7	-13	-8	1	3	13	i	-18
CCC(C)N1C(=O)CCC1C(=O)NCc1ccc2c(c1)OCO2 (stereo not drawn)	0	-7	-9	3	-3	4	i	1
NC(=O)c1nsc(C(=O)N(c2ccccc2F)C(C(=O)NCc2ccc(F)cc2)c2ccc(O)cc2)c1N (stereo not drawn)	-9	-14	29	-19	-5	·	i	-9
Cc1ccc(C)c(N2CCN(CC3CCCCC3)CC2)c1	1	-9	13	0	-5	36	i	-8
Cc1cc(C)n(CCCNC(=O)Cn2nnnc2CN2C[C@@H](C)O[C@@H](C)C2)n1	2	-2	0	3	6	-4	i	-4
COc1cccc(C2C(C(=O)c3ccc(C)o3)=C(O)C(=O)N2CCN2CCOCC2)c1 (stereo not drawn)	2	-6	-79	-2	2	-9	i	12
NC(=O)c1nn(-c2ccccc2)nc1NC(=O)CN1CCCCC1	-12	-6	-20	2	0	14	i	-4
CC1Cc2ccccc2N1C(=O)c1ccc2c(c1)OCO2 (stereo not drawn)	2	-21	-8	-1	1	5	i	19
CC1CN(CC(O)COc2ccccc2C(C)(C)C)CC(C)O1 (stereo not drawn)	-4	2	-14	2	-8	32	·	-10
N#C/C(Cn1c[n+](NC(=O)Nc2ccccc2)cn1)=N/O	15	·	-14	0	-7	-11	i	-5
O=C(NNS(=O)(=O)c1ccccc1C(F)(F)F)c1cccc(S(=O)(=O)Nc2ccccc2Cl)c1	-4	-7	·	-1	1	-10	i	-8
O=C(CN1CCN(c2ccc(O)cc2)CC1)NC1CCCc2ccccc21 (stereo not drawn)	4	·	35	·	·	39	i	6
COc1ccc(NC(=O)c2cn(C)c(=O)c3cc(OC)c(OC)cc23)cc1OC	-9	-10	-158	6	2	1	i	-14
O=C(NCCCn1ccnc1)c1nc(Cn2ccc([N+](=O)[O-])n2)no1	9	-14	3	-1	0	-5	·	9
N/C(COc1ncn(-c2ccccc2)n1)=N\S(=O)(=O)c1ccccc1	-4	·	11	-1	0	-1	i	-3
COc1ccc(OC)c(NC(=O)c2ccc(NS(C)(=O)=O)cc2)c1	-5	-4	3	15	4	-6	i	8
CCN1c2ccccc2NC2N=C(OC)C(c3ccccc3)C21 (stereo not drawn)	2	·	·	16	24	1	i	6
Cn1c(CNC(=O)OC(C)(C)C)nnc1SCC(=O)N1CCOCC1	5	·	5	0	4	-10	i	-1
O=[N+]([O-])c1cccc(S(=O)(=O)c2ccc(N3CCCCC3)c([N+](=O)[O-])c2)c1	-2	-18	·	-8	-27	14	i	-1
COc1ccc(-c2csc(NC(=S)NC(=O)/C=C/c3ccc(C(C)C)cc3)n2)cc1OC	-10	-15	7	3	-7	4	i	-3
CCC(C)NC(=O)c1ccc(N2CCC3(CC2)OCCO3)c([N+](=O)[O-])c1 (stereo not drawn)	-9	·	-13	-1	-3	·	i	-5
Cn1c(SCC(=O)Nc2sccc2C(N)=O)nnc1-c1ccncc1	22	-8	3	-1	0	-7	i	11
CCOc1ccc(C(=O)NCCn2cc(SCC(=O)Nc3cc(C)on3)c3ccccc32)cc1	-6	-30	-40	2	-6	31	i	-14
CC1CN(C(=O)COC(=O)c2ccc(Cl)nc2)CC(C)O1 (stereo not drawn)	11	·	19	3	3	-7	i	1
COc1ccccc1C1(O)C(=O)Nc2ccc(C)cc21 (stereo not drawn)	-8	-10	-1	-3	0	-7	i	-10
CC1(C)CC(CCNC(=O)CCl)(c2ccccc2)CCO1 (stereo not drawn)	4	-11	-13	-1	1	10	i	-10
COc1ccc(/C=N/NC(=O)c2cccnc2)cc1O	11	-20	-13	2	1	4	i	0
CC(=O)Nc1ccc(NC(=O)C(C)OC(=O)CCC2CCCC2)cc1 (stereo not drawn)	·	-12	-5	3	3	-10	i	·
COc1cc2c(cc1OC)CN(c1ccc3ccccc3n1)CC2	-1	1	-17	-5	-8	14	i	21

An excerpt from above in order of length of the SMILES, highest first.
SMILES	PABP polyA inh	UUG fidelity	Env fusion inh	MT1-MMP act inh	MT1-MMP act inh RFP	CSC inhib	Rce1 inhib	eIF4H inh	others
O=C(NNS(=O)(=O)c1ccccc1C(F)(F)F)c1cccc(S(=O)(=O)Nc2ccccc2Cl)c1	-4	-7	·	-1	1	-10	i	-8
CCC(C)NC(=O)c1ccc(N2CCC3(CC2)OCCO3)c([N+](=O)[O-])c1 (stereo not drawn)	-9	·	-13	-1	-3	·	i	-5
Cc1cccc(N2CCN(C(=O)c3cc(COc4ccc(F)c(F)c4)on3)CC2)n1	7	-13	-8	1	3	13	i	-18
O=C(NCCCn1ccnc1)c1nc(Cn2ccc([N+](=O)[O-])n2)no1	9	-14	3	-1	0	-5	·	9
COc1ccc(OC)c(NC(=O)c2ccc(NS(C)(=O)=O)cc2)c1	-5	-4	3	15	4	-6	i	8
O=C(CN1CCN(c2ccc(O)cc2)CC1)NC1CCCc2ccccc21 (stereo not drawn)	4	·	35	·	·	39	i	6
Cn1c(SCC(=O)Nc2sccc2C(N)=O)nnc1-c1ccncc1	22	-8	3	-1	0	-7	i	11
NC(=O)c1nn(-c2ccccc2)nc1NC(=O)CN1CCCCC1	-12	-6	-20	2	0	14	i	-4
CCN1c2ccccc2NC2N=C(OC)C(c3ccccc3)C21 (stereo not drawn)	2	·	·	16	24	1	i	6
CC1(C)CC(CCNC(=O)CCl)(c2ccccc2)CCO1 (stereo not drawn)	4	-11	-13	-1	1	10	i	-10
Cc1ccc(C)c(N2CCN(CC3CCCCC3)CC2)c1	1	-9	13	0	-5	36	i	-8
COc1ccc(/C=N/NC(=O)c2cccnc2)cc1O	11	-20	-13	2	1	4	i	0

Additional compounds
SMILES	PABP polyA inh	UUG fidelity	Env fusion inh	MT1-MMP act inh	MT1-MMP act inh RFP	CSC inhib	Rce1 inhib	eIF4H inh	others
Cn1c(SCC(=O)N2c3ccccc3CCc3ccccc32)nnc1-c1cc2ccccc2cc1O	-2	·	-22	-2	-12	-5	i	2
CCOC(=O)CSc1nc(NC#N)nc(N(CC)CC)n1	5	-21	-88	-7	9	-9	i	-4
CCOC(=O)c1c(C)nn(-c2ncccc2NC(=O)NC(C)C)c1C	16	2	-1	-1	2	-7	i	20
O=C(c1ccco1)C(O)c1ccco1 (stereo not drawn)	0	1	19	-3	7	-7	i	13
C[C@@H]1CC=C[C@H]2[C@H]1C(=O)N(Cc1ccccc1)[C@H]2c1ccc(-c2cc3ccccc3s2)cc1F	-7	-9	-31	-5	-7	42	i	-7
CC1C=CCC2C(=O)N(c3ccccc3OC(=O)c3ccco3)C(=O)C12 (stereo not drawn)	-5	-32	-3	-3	0	-9	i	-2
Cc1cccc(NC(=O)c2cccc(Cn3cc(Br)c([N+](=O)[O-])n3)c2)c1C	0	-2	·	-7	-22	5	i	4
C=CCn1c(COc2cccc3ccc(C)nc23)nnc1SCC(N)=O	-10	-17	5	2	-1	-4	i	-10
O=C(CCCc1c[nH]c2ccccc12)NCC1COc2ccccc2O1 (stereo not drawn)	8	·	-9	1	-1	16	i	-3
COc1ccc(C(=O)NCCS(=O)(=O)NCCc2ccccc2)cc1	·	-15	-35	-3	1	·	i	·
Cn1cccc1CC(=O)N/N=C/c1ccco1	10	-10	3	-1	1	5	i	29
Nc1nc(N)c2cc(CNc3ccc(Cl)c(Cl)c3)ccc2n1	·	34	1	2	-6	·	·	·
CCOC(=O)c1sc(SCC(=O)Nc2ccc(N(C)C)cc2)nc1N	13	-37	-8	-4	-2	9	i	-4
COc1ccc(C2=NN(C(=O)CSc3ncccn3)C(c3cccc(OC)c3OC)C2)cc1 (stereo not drawn)	?	·	9	0	-5	-4	i	4
COc1ccc(C(=O)Oc2cc(N)n(S(=O)(=O)c3ccccc3)n2)cc1	6	·	-15	5	1	7	·	-4
O=C(Cn1cnc2c(oc3ccccc32)c1=O)N1CCCc2ccccc21	13	-13	-36	3	4	-9	·	-2
CCS(=O)(=O)Nc1cccc(C2=NN(S(=O)(=O)c3ccc(C)cc3)C(c3ccco3)C2)c1 (stereo not drawn)	55	-5	23	1	-1	10	i	-8	eIF4H inh retest=-8;PABP polyA inh retest=6
CCOC(=O)C1(C)/C(=N/Nc2ccccc2Cl)C(=O)C(=O)N1c1ccccc1 (stereo not drawn)	20	·	28	-1	0	-1	i	-9
Cc1cc(C)nc(NS(=O)(=O)c2ccc(NC(=O)c3ccc4c(c3)OCCO4)cc2)n1	-8	·	11	1	5	1	i	-8
O=C(CCCCCn1c(=S)[nH]c2ccc(N3CCOCC3)cc2c1=O)NC1CCN(Cc2ccccc2)CC1	-10	-6	8	0	-8	16	i	0
COc1ccc(SC[C@H](CC(C)C)N2CCN(C)CCC2=O)cc1	-2	-4	-7	-3	-5	-8	i	-3
COc1ccc2cc3cc(C(=O)Nc4ccc5c(c4)OCO5)oc3nc2c1	1	-8	-41	-4	-1	?	i	-4
CC(C)(C)c1cc(C(=O)N/N=C/c2ccc(O)cc2)n(-c2ccccc2)n1	5	0	60	11	1	-1	i	-9
CCCn1nnnc1NCc1ccc(N(CC)CC)cc1	-13	-11	-4	-3	1	-8	i	-2
O=C(CSc1nnnn1-c1ccccc1)Nc1ccc(Cl)cn1	-6	-6	·	1	-4	11	i	-13
COc1ccc(NC(=O)c2ccccc2-c2ccc(C(F)(F)F)cc2)cc1S(=O)(=O)N1CCOCC1	-1	2	·	4	2	·	i	-10
Cc1ccc(C(C(=O)NC2CCCCC2)N(Cc2cccnc2)C(=O)c2csnn2)cc1 (stereo not drawn)	5	·	1	1	2	-3	·	2
O=C1c2ccccc2C(=O)N1OS(=O)(=O)c1ccccc1	3	·	·	·	·	42	i	10
Cc1cc2cc3c(=O)[nH]c(=O)cc-3n(CC(O)C(O)C(O)CO)c2cc1C (stereo not drawn)	·	-9	6	-5	17	·	·	·
C=CCNc1nc(-c2cc3ccccc3o2)cs1	8	-52	·	2	-1	4	i	-10
COc1cccc(-c2cc(C(=O)N3CC4(C)CC3CC(C)(C)C4)no2)c1 (stereo not drawn)	-5	-26	11	-8	-6	53	i	-9
Cc1cc(=O)[nH]c(SC(C(=O)O)c2ccccc2)n1 (stereo not drawn)	2	-23	9	1	3	-6	i	-1
COc1ccc(N/C=C/C(=O)c2sc(-c3ccccc3)nc2C)cc1	40	-13	·	-22	-3	51	i	60	eIF4H inh retest=-7;PABP polyA inh retest=5
